# Mtb MenB inh – blocks the Mycobacterium tuberculosis MenB enzyme; hit rate 0.43% among 100,000; AID 540299; P9WNP5; MenB enzyme assay, absorbance read-out; some hits fall short of the stated cut; inhibition, %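 (about 12 µg/mL by stock and volumes)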;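 active = mean of two replicates above 30%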;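 note: 0% = no compound and 100% = wells with inactive enzyme; the first replicate is given; strong numbers were not always called active; inactives centre near -10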
# Target sequence (P9WNP5 whole entry, looked up): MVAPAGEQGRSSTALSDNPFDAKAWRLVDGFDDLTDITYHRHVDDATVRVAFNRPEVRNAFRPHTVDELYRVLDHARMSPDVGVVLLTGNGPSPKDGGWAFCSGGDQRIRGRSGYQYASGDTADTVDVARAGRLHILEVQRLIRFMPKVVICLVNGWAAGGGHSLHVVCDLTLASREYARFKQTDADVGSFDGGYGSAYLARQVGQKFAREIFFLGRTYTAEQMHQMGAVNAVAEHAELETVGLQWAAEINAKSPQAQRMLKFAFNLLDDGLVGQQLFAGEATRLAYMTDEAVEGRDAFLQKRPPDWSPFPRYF
# Polio RdRp inh – inhibitors of poliovirus RNA polymerase binding and polymerization; P03300; poliovirus polymerase elongation, fluorescence polarization; stronger effect = lower value; % elongation, % (compound at 16.7 µg/mL); hit rate 0.66% among 150,000; AID 588519; in the data active = % elongation below about 90%; note: some results filed as inactive read as strong as hits
# MbtI inh – blocks the Mycobacterium tuberculosis siderophore enzyme MbtI; P9WFX0; purified MbtI enzyme, fluorescence intensity read-out; inhibition, %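 (about 17 µg/mL by stock and volumes)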; hit rate 0.89% among 100,000; AID 493033;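 active = above 50% in both replicates, above 80% if mildly self-fluorescent; inactive = the rest, strongly fluorescent compounds included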;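 note: 0% = mean of negative and 100% = mean of positive controls; one replicate is shown; some compounds called inactive have numbers as strong as hits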
# Target sequence (P9WFX0 whole entry, looked up): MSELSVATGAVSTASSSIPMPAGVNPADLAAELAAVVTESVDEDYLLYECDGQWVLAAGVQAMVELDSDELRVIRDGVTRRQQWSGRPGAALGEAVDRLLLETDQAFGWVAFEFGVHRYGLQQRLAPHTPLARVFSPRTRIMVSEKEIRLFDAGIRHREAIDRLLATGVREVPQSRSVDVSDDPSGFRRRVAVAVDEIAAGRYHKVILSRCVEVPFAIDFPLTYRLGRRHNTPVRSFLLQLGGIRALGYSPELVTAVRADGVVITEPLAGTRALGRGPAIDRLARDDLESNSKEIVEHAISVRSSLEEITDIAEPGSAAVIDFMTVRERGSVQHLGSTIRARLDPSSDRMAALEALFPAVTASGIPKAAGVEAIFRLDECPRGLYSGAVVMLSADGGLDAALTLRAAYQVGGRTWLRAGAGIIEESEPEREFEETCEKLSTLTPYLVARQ
# Polio RdRp inh intensity – second read-out of Polio RdRp inh, no call of its own (marks repeat the call); % elongation; measured here: total intensity read-out; formula for this scale not given here;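 total fluorescence in place of polarization; lower means less elongation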
# Active calls of the source: *; i = inactive; nt = not tested or not shown; & = joins results of further samples.
# Start of the data: the first 14 compounds, to show the layout:
# Each structure is followed by: Polio RdRp inh, MbtI inh, Mtb MenB inh, Polio RdRp inh intensity
1: O=C(Nc1nn2cnnc2s1)C1CCCC1
    nt, -6, -15, nt
2: CCc1ccc(OCC(O)CN)cc1 (stereo not given)
    102, -2, -24, 101
3: CC1CCN(CC(=O)c2cccs2)CC1
    99, 13, -49, 104
4: CNC(=O)COc1ccc(S(=O)(=O)N2CCOCC2)cc1Cl
    104, -15, -11, 100
5: CCN(CC)S(=O)(=O)c1ccc(Nc2ccc(-c3ccc4c(c3)OCCO4)nn2)cc1
    101, 15, 20, 102
6: Cc1c(C)n(C(=O)CN2CCC(C(N)=O)CC2)c2ccccc12
    99, -44, -3, 101
7: COCC(C)NCc1cc(=O)oc2cc(C)c(C(C)C)cc12 (stereo not given)
    105, 31, -16, 106
8: O=C(CCC(=O)N1CCN(c2ccc(Cl)c(Cl)c2)CC1)c1ccccc1
    103, -6, -30, 106
9: O=C(NCc1ccccn1)c1ccc(-c2nc3ccccc3s2)s1
    102, 110, -14, 107
10: CNS(=O)(=O)c1cc(-c2nn(C)c(=O)c3ccccc23)ccc1C
    103, 8, -13, 103
11: Cc1oc(-c2ccc(Cl)cc2)nc1CN1CCC(C(=O)NC2CCCCC2)CC1
    100, 3, 0, 102
12: Cc1ccc(NC(=O)c2cnc3ccc(S(=O)(=O)N(C)C4CCCCC4)cc3c2Cl)cc1F
    100, 3, -7, 102
13: CCc1c(C)c(C#N)c2nc3ccccc3n2c1NCc1ccccc1
    103, nt, -11, 109
14: Nc1cccc2c1C(=O)N(CCO)C2=O
    73, -15, -89, 136

# The whole of this part, repeating the preview:
# Each structure is followed by: Polio RdRp inh, MbtI inh, Mtb MenB inh, Polio RdRp inh intensity
1: O=C(Nc1nn2cnnc2s1)C1CCCC1
    nt, -6, -15, nt
2: CCc1ccc(OCC(O)CN)cc1 (stereo not given)
    102, -2, -24, 101
3: CC1CCN(CC(=O)c2cccs2)CC1
    99, 13, -49, 104
4: CNC(=O)COc1ccc(S(=O)(=O)N2CCOCC2)cc1Cl
    104, -15, -11, 100
5: CCN(CC)S(=O)(=O)c1ccc(Nc2ccc(-c3ccc4c(c3)OCCO4)nn2)cc1
    101, 15, 20, 102
6: Cc1c(C)n(C(=O)CN2CCC(C(N)=O)CC2)c2ccccc12
    99, -44, -3, 101
7: COCC(C)NCc1cc(=O)oc2cc(C)c(C(C)C)cc12 (stereo not given)
    105, 31, -16, 106
8: O=C(CCC(=O)N1CCN(c2ccc(Cl)c(Cl)c2)CC1)c1ccccc1
    103, -6, -30, 106
9: O=C(NCc1ccccn1)c1ccc(-c2nc3ccccc3s2)s1
    102, 110, -14, 107
10: CNS(=O)(=O)c1cc(-c2nn(C)c(=O)c3ccccc23)ccc1C
    103, 8, -13, 103
11: Cc1oc(-c2ccc(Cl)cc2)nc1CN1CCC(C(=O)NC2CCCCC2)CC1
    100, 3, 0, 102
12: Cc1ccc(NC(=O)c2cnc3ccc(S(=O)(=O)N(C)C4CCCCC4)cc3c2Cl)cc1F
    100, 3, -7, 102
13: CCc1c(C)c(C#N)c2nc3ccccc3n2c1NCc1ccccc1
    103, nt, -11, 109
14: Nc1cccc2c1C(=O)N(CCO)C2=O
    73, -15, -89, 136
15: CCSC1=N/C(=C\c2cccc(OC)c2)C(=O)S1
    101, -6, -16, 103
16: Cc1nn(C)c(C)c1NC(=S)NC1CCCC1
    101, 0, -20, 102
17: Cc1ccc(Cn2c(SCC(=O)N(C)C)nc3ccccc3c2=O)cc1
    97, -17, -10, 95
18: c1ccc(N=C2NN=C(c3ccccc3)CS2)cc1
    94, -61, -20, 95
19: COc1ccccc1/C=N/NC=O
    101, 26, -5, 96
20: O=C1CSc2cc(S(=O)(=O)N3CCN(c4ccccc4)CC3)ccc2N1
    102, -2, 0, 106
21: CC1=CC(=O)C(C(=O)/C=C/c2ccc(N(C)C)cc2)C(=O)O1 (stereo not given)
    46, 12, 3, 248
22: CCOC(=O)C1=C(C)SC2=NS(=O)(=O)CCN21
    103, 0, -8, 106
23: Cc1c2cnn(-c3ccccc3)c(=O)c2c(C)n1CC(=O)N1CCCCC1
    104, 5, -25, 103
24: CC(C)N(C(=O)CSCc1nc2ccccc2[nH]1)c1ccccc1
    100, -5, 2, 103
25: N#Cc1c(F)cccc1NCc1cccs1
    107, -93, -15, 108
26: c1ccc(-c2cccc(-c3ccccn3)n2)nc1
    113, 6, nt, 118
27: COc1ccc(C2=NN(C(=O)COc3ccc(NC(=O)c4ccco4)cc3)C(c3ccco3)C2)cc1 (stereo not given)
    104, 67, -29, 98
28: CC(Nc1ccccc1CO)C(=O)N1CCOCC1 (stereo not given)
    106, -1, -2, 103
29: CCSc1nc2c(cnn2-c2ccc(Cl)cc2)c(=O)[nH]1
    100, 8, -30, 103
30: CN1CCN(P(=O)(c2ccccc2)c2nc3ccccc3s2)CC1 (stereo not given)
    102, -1, -3, 99

# Next part
# Each structure is followed by: Polio RdRp inh, MbtI inh, Mtb MenB inh, Polio RdRp inh intensity
31: CCn1cc(-c2csc(N)n2)c(C)n1
    101, 2, 10, 100
32: CCOC(=O)c1cnc2c(CC)cccc2c1NCCO
    101, -1, -26, 102
33: O=C(CSc1nc2ccccc2c(=O)[nH]1)c1ccc2c(c1)OCCO2
    103, 31, -9, 103
34: Cc1ccc(CNC(=O)CCc2c(C)nn3cnnc3c2C)cc1
    103, 58, -9, 102
35: CCSc1ncc(Cl)c(C(=O)N2CCN(c3cccc(Cl)c3)CC2)n1
    103, -2, -26, 103
36: Cc1nnsc1-c1nc2ccccc2[nH]1
    100, i, nt, 99
37: Nc1ccc(C(=O)O)cn1
    106, 4, -12, 106
38: CC1(C)NNC(=S)NC1=O
    106, -5, -11, 107
39: COc1ccc(-c2nnc(NC(=O)c3ccc(S(=O)(=O)N4CCCCC4)cc3)o2)cc1
    102, 9, -11, 102
40: CCOC(=O)c1c(C)[nH]c(C(=O)N/N=C\c2ccccc2)c1C
    104, -3, -30, 98
41: CCCCc1nn2c(=O)cc(O)nc2s1
    103, 0, -61, 105
42: COc1ccc(COc2ncnc3sccc23)cc1F
    110, -3, -7, 113
43: COc1cccc2sc(NCc3ccccc3)nc12
    102, -3, -5, 101
44: CCN(CCN(C)C)C(=O)Cn1ncc2c1-c1ccccc1OC2
    102, 4, -15, 104
45: CCOC(=O)C1C(c2ccccc2)C(C(=O)OCC)C1c1ccccc1 (stereo not given)
    105, nt, -16, 97
46: Cc1csc(=O)n1CCC(=O)OCC(=O)c1ccc2ccccc2c1
    101, -46, -41, 105
47: Cc1ccc(Nc2cn[nH]c(=S)n2)cc1
    98, 12, 1, 103
48: CCCCc1cc2c(c(NC(C)=O)n1)c(=O)oc1ccccc12
    102, 11, -18, 99
49: Cc1ccccc1S(=O)Cc1ccc(C(=O)N2CCCC2)o1 (stereo not given)
    102, 15, -13, 104
50: CCN1CCN(c2cc(C)c3cc(NC(=O)/C=C/c4ccc(OC)cc4)ccc3n2)CC1
    101, 0, -3, 101
51: CC(N)c1ccncc1 (stereo not given)
    100, -10, -14, 103
52: O=C(CCCCC(=O)Nc1c(I)cc(I)c(C(=O)O)c1I)Nc1c(I)cc(I)c(C(=O)O)c1I
    101, -18, -1, 99
53: CCN(CC)C(=O)Nc1ccc(NC(=O)N(CC)CC)cc1
    105, -13, -10, 108
54: O=C(NN1CC(=O)N(C2CCCC2)C1=O)c1cc2c(s1)CCCC2
    101, -4, 5, 103
55: COc1ccc(OC)c(N2C(=O)NC(=O)C(CCc3ccccn3)(CCc3ccccn3)C2=O)c1
    100, -11, -5, 101
56: COCC(=O)Nc1ccc(Nc2ccccc2)cc1
    100, -3, -8, 102
57: O[C@H]1[C@H]2[C@H](O)CCCN2C[C@H]1O
    101&99, -6, -4, 102&100
58: COc1ccc(NC(=O)c2ccc(F)c(F)c2)c2ccccc12
    104, -2, nt, 107
59: CSc1nc(NS(=O)(=O)c2cc(C(F)(F)F)cc(C(F)(F)F)c2)nn1C
    99, -1, 1, 91
60: COc1ccc(/C=C(/NC(=O)c2ccco2)C(=O)N2CCCC2=O)cc1
    100, -8, -5, 106

# The list continues.
# Each structure is followed by: Polio RdRp inh, MbtI inh, Mtb MenB inh, Polio RdRp inh intensity
61: CCOc1ccccc1C(=O)NCc1ccc(OC)c(C(=O)OC)c1
    108, 35, -2, 112
62: CSc1nnc(CCNC(=O)N(c2ccccc2)c2ccccc2)n1C
    102, -10, -10, 100
63: CC(C)Cn1c(Cc2ccccc2)nc2ccccc21
    98, 17, 5, 100
64: NC(=S)N1N=C(c2ccc(Cl)cc2)CC1c1ccco1 (stereo not given)
    101, 0, 1, 108
65: Cc1ccc(O)c(C(=O)/C=C(\N)C(F)(F)F)c1
    98, -7, 6, 104
66: Cc1cc(C=NCCO)c(C)n1-c1cc(Cl)ccc1Cl
    104, 18, 9, 109
67: CC(C)Cn1c(=O)c2cc3c(=O)n(CC(C)C)c(=O)c3c(C(=O)c3ccc(Cl)cc3)c2c1=O
    101, 3, 3, 104
68: O=C(COC(=O)c1sc2ccccc2c1Cl)Nc1ccccc1
    101, -2, nt, 97
69: CC1CCCC(C)N1C(=O)CSc1nnc(-c2ccccc2)o1 (stereo not given)
    100, 10, -1, 101
70: Cc1ccc(C2=NN(CCC(=O)N3CCC(C(N)=O)CC3)C(=O)CC2)cc1
    102, 0, 3, 107
71: Nc1ccccc1NCCc1ccccc1
    104, -2, nt, 123
72: Cc1sc(-c2ccccc2)nc1CC(=O)NN
    101, 9, 5, 98
73: CCCCN(Cc1ccccc1)C(=O)C1CCN(Cc2cccc(O)c2)CC1
    103, nt, -3, 110
74: CC(C#N)Sc1nnc(-c2ccco2)n1C1CCCCC1 (stereo not given)
    108, -3, -32, 102
75: CC(=O)Nc1ccccc1C#N
    102, -17, 9, 101
76: O=C1/C(=C\c2cccnc2)SC(=S)N1C1CCS(=O)(=O)C1 (stereo not given)
    102, -16, 12, 102
77: Cc1cc2occ(CC(=O)OCC(=O)Nc3sccc3C#N)c2cc1C
    80, -12, -23, 236
78: COc1ccc(-c2c(N)n[nH]c2-c2ccccc2)cc1OC
    101, -303, -11, 102
79: Cc1c(CC(=O)O)c(=O)oc2cc3oc4c(c3cc12)CCCC4
    103, 2, 7, 97
80: CCCN(CCC)S(=O)(=O)c1ccc(N)cc1
    102, -19, 5, 104
81: CCCN=C1NC(=O)C(CC(=O)Nc2ccccc2Cl)S1 (stereo not given)
    103, -11, 1, 104
82: Cn1c(N)c(C(=S)NC(=O)C(C)(C)C)c(=O)[nH]c1=O
    135, 34, 4, 148
83: Cc1noc(C)c1/C=C/C(=O)Nc1ccccc1C(C)(C)C
    102, -3, -13, 101
84: OC(COc1cccc2ccccc12)CN1CCOCC1 (stereo not given)
    101, 33, -27, 101
85: O=C1NCCNC1CC(=O)N1CCN(c2ccccc2)CC1 (stereo not given)
    103, -2, 5, 105
86: O=C(NCNC(=O)NC1C(=O)NC(=O)N1CO)NC1C(=O)NC(=O)N1CO (stereo not given)
    99, 0, -6, 103
87: CCN(CC)CCOC(=O)C1(C2CCCCC2)CCCCC1
    99&99, -16&-8, 3&4, 102&100
88: O=C(Cc1ccccc1)NC1CCN(C(=O)c2cccs2)CC1
    104, -17, -3, 108
89: NC1=NC(=O)/C(=C\c2ccc(F)cc2)S1
    105, -1, nt, 99
90: CC(C)Cn1c(SCc2nnc(-c3ccccc3)o2)nnc1-c1ccccc1F
    98, -2, 5, 102

# The results go on.
# Each structure is followed by: Polio RdRp inh, MbtI inh, Mtb MenB inh, Polio RdRp inh intensity
91: O=C(c1cc2c(s1)-c1ccccc1SC2)N1CCCC1
    101, -2, -15, 100
92: CCOC(=O)c1nn(-c2ccccc2)c(=O)c2c(N)c(C#N)c(-c3ccco3)cc12
    109, -19, -13, 159
93: CC(C)C1CC(CCN)(Cc2ccccc2)CCO1 (stereo not given)
    105, nt, -13, 98
94: O=c1oc2ccccc2n1Cc1ccccc1Cl
    109, nt, -4, 112
95: c1ccc(Oc2cccc(Oc3ccccc3)c2)cc1
    101, 13, -2, 103
96: O=C(CSc1nnnn1-c1ccccc1)Nc1ccc(S(=O)(=O)Nc2nccs2)cc1
    103, 2, 6, 101
97: COC(=O)c1ccsc1NC(=O)CS(=O)(=O)c1ccccc1
    107, 3, -14, 106
98: O=C(N1CCCCC1)N1c2ccccc2C=Cc2ccccc21
    106, -3, -24, 101
99: Cc1cc(C)n(C(=O)c2cccc(S(=O)(=O)N3CCCC3)c2)n1
    99, -4, -28, 103
100: CCCC(=O)Nc1ccc2c(c1)nc1n2CCN(Cc2ccccc2)C1
    102, 117, -6, 101
101: COc1ccc(/C=C/C(=O)N2CCC(c3ccccc3)C2)cc1 (stereo not given)
    102, 1, -26, 102
102: O=C(Nc1cc(C(F)(F)F)ccc1-n1cncn1)C1=NN(c2ccccc2)C(=O)CC1
    103, 3, -5, 101
103: COc1ccc(C)cc1S(=O)(=O)N1CCCC(C(=O)NCC2CCCO2)C1 (stereo not given)
    100, 2, -2, 102
104: CCOC(=O)C(C#N)C(=O)c1ccc(NC(=O)c2ccccc2)cc1 (stereo not given)
    103, 9, -42, 101
105: Cc1ccn2c(=O)c(C3=Nc4ccccc4C3=O)c(O)nc2c1
    103, 1, -16, 103

# High-throughput results: PubChem, ICCB-Longwood Screening Facility, Harvard Medical School
